Bioassay records from PubChem.
AmpC inh no det: Promiscuous and Specific Inhibitors of AmpC Beta-Lactamase (assay without detergent); actives 1.8% (n = 71,000); Potency, µM (highest dose often 28.7 µM), without a hit: at the top dose activity change, negative = inhibition; P00811; AmpC nitrocefin hydrolysis, absorbance 480 nm, no detergent; potencies from a single point are estimates; active = falling curve, for most hits resting on a single point; inconclusive = weak or doubtful change; inactive = flat or rising curve; note: % of control where 0% means no effect; about half of the hits show no inhibition at the top dose; a quarter of the inactives give rising signals
Target sequence (P00811 whole entry, looked up): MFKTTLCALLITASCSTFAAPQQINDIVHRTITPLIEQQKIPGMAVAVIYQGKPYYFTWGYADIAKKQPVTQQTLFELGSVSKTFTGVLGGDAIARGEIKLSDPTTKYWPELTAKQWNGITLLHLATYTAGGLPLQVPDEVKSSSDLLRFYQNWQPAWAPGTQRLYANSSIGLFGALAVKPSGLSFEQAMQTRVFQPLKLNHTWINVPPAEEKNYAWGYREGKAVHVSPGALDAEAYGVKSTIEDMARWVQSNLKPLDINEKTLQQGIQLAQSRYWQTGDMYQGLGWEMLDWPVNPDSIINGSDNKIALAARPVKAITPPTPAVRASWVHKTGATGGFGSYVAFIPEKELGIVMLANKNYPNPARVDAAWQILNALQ
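AmpC, 20 mM phosphate pH 7.0; 15 min cpd preinc, RT; start with nitrocefin (800 uM stock); A480 kinetic read, 20 s intervals, 4 min. No-enzyme wells = negative control.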
Numbers without * were called inactive; ? = inconclusive; [ ] = another dose, or the depositor's remark. Potency is the fitted concentration of half-maximal effect. An excerpt. The share of hits here may be higher or lower than overall.

molecule	AmpC inh no det
CCOC(=O)C1=C(CSc2nc(C)ccc2C#N)OC(N)=C(C#N)C1c1cccc(OC)c1OC (stereo not drawn)	14.0%
CCC(OC(=O)CC1Sc2ccccc2NC1=O)C(=O)NCC1CCCO1 (stereo not drawn)	18.3%
CCOP(=O)(c1ccc(N(C)C)cc1)C(O)c1ccc(Cl)cc1 (stereo not drawn)	58.9%
O=C(CN1CCN(C(=O)c2ccco2)CC1)Nc1ccc(Cl)c(C(F)(F)F)c1	70.0%
Cn1c(Cn2c(=O)sc3ccccc32)nnc1SCC(=O)NCC1CCCO1 (stereo not drawn)	-8.6%
O=C(CN1C(=O)c2cccc3cccc1c23)N1CCN(c2cccc(Cl)c2)CC1	-0.5%
CN1[C@@H]2CC[C@H]1CC(OC(=O)c1c[nH]c3ccccc13)C2 (stereo partly drawn)	-10.6%
COc1ccccc1NC(=O)CSc1nnc(Cc2cc(=O)[nH]c(=O)[nH]2)n1-c1ccccc1	0.9%

Quoted from the listing.
AmpC inh no det result of O=C(CN1CCN(C(=O)c2ccco2)CC1)Nc1ccc(Cl)c(C(F)(F)F)c1 → 70.0%
AmpC inh no det result of CCC(OC(=O)CC1Sc2ccccc2NC1=O)C(=O)NCC1CCCO1 (stereo not drawn) → 18.3%

(further entries)
molecule	AmpC inh no det
Cc1ccc(Cl)cc1N(CC(=O)N1CCCCCC1)S(C)(=O)=O	47.1%
NCCCCCc1nnc(SC/C=C/c2ccccc2)o1	27.6%
COc1cc(C2c3c(-c4cc(C)cc(C)c4O)n[nH]c3C(=O)N2CCCO)cc(OC)c1OC (stereo not drawn)	139.5%
COc1ccc(NC(=O)N(Cc2cc3cc(OC)ccc3[nH]c2=O)CC2CCCO2)cc1 (stereo not drawn)	60.0%
Cc1nn(Cc2ccccc2Cl)c(C)c1N	9.4%
O=C(CSc1nnc(-c2ccc(S(=O)(=O)N3CCOCC3)cc2)o1)c1ccccc1F	-1.4%
COc1cc2[nH]c(=S)n(CC3CCCO3)c(=O)c2cc1OC (stereo not drawn)	28.7%
CCCC1CCC(C(=O)Nn2c(C)nc3ccccc3c2=O)CC1 (stereo not drawn)	31.5%
S=C(c1ccc(N2CCOCC2)cc1)N1CCCCC1	-4.7%
CCCCN1CCC[C@@H]1CNC(=O)c1cc(C#N)c2ccccc2c1OC	26.6%
Cc1ccc(-n2ncc3c(=O)[nH]c(SCC(=O)N4CCCC4)nc32)cc1C	5.6%
CCOC(=O)c1cccc(NC2c3ccccc3C(=O)N2Cc2ccco2)c1 (stereo not drawn)	37.9%
CCOC(=O)c1cccc(NC(=O)C2CCCN(S(=O)(=O)c3cnc[nH]3)C2)c1 (stereo not drawn)	12.1%
COc1ccc(NC(=O)C2CCCN2S(=O)(=O)c2ccc3c(c2)CCC(=O)N3)cc1 (stereo not drawn)	16.9%
COc1ccccc1CNC(=O)CC(NS(=O)(=O)c1ccc(C)cc1)c1ccco1 (stereo not drawn)	-15.4%
CC(C)(C)NC(=O)NC(=O)COc1ccccn1	-2.2%

Three entries drawn at random from the list so far:
molecule	AmpC inh no det
COc1ccccc1NC(=O)CSc1nnc(Cc2cc(=O)[nH]c(=O)[nH]2)n1-c1ccccc1	0.9%
CCCC1CCC(C(=O)Nn2c(C)nc3ccccc3c2=O)CC1 (stereo not drawn)	31.5%
CCOP(=O)(c1ccc(N(C)C)cc1)C(O)c1ccc(Cl)cc1 (stereo not drawn)	58.9%

Going on with the list:
molecule	AmpC inh no det
CC(=O)NC(=O)NC1CSCC1OC(C)=O (stereo not drawn)	-1.1%
O=C1C(C=NCCCN2CCCC2=O)=C(O)c2ccccc21	7.8%
CC(C)(C)n1nnnc1C(c1cccc(C#N)c1)N1CCC(Cc2ccccc2)CC1 (stereo not drawn)	21.4%
CC(C)C(=O)Nc1cccc(C(=O)NCc2ccc(S(N)(=O)=O)cc2)c1	-4.1%
Cc1ccc(S(=O)(=O)C2(C(=O)NCc3ccc4c(c3)OCO4)CC2)cc1	3.98µM*[single pt active]
NC(=O)C1CCN(C(=O)Nc2ccccc2)CC1	2.2%
COC(=O)CCC(=O)N1CCc2cc(S(=O)(=O)N3CCc4ccccc43)ccc21	126.2%
c1ccc(Nc2nc(-c3ccncc3)cs2)nc1	27.9%

Molecules shown so far that contain two or more sulfur atoms:
molecule	AmpC inh no det
Cn1c(Cn2c(=O)sc3ccccc32)nnc1SCC(=O)NCC1CCCO1 (stereo not drawn)	-8.6%
O=C(CSc1nnc(-c2ccc(S(=O)(=O)N3CCOCC3)cc2)o1)c1ccccc1F	-1.4%

The results go on.
molecule	AmpC inh no det
COc1cc(OC)cc(C(=O)Nc2cccc(NC(C)=O)c2)c1	0.6%
COCCn1nnnc1CN(Cc1cccnc1)Cc1cc2cc(OC)ccc2[nH]c1=O	13.4%
CCCC(=O)Nc1nnc(COC)s1	-1.6%
CN(CCc1ccccn1)S(=O)(=O)c1ccccc1F	-0.1%
COC(=O)c1nc2n(n1)C(c1cccc(Cl)c1)C1=C(CC(C)(C)CC1=O)N2 (stereo not drawn)	3.98µM*[single pt active]
COc1ccccc1-c1cc(C2CC2)nc(N)c1C#N	-1.9%
CN1CCN(CCN2CCn3c2nc2ccccc23)CC1	-6.4%
COC(=O)c1ccc(C(/C=C/[C@@H](C)C(=O)NCc2ccccc2)NC(=O)OCc2ccccc2)cc1 (stereo partly drawn)	6.3%
COC(=O)c1ccccc1NC(=O)Nc1cnccn1	-6.5%
O=c1cc(CO)oc(CN2CCC(Cc3ccccc3)CC2)c1O	-2.4%
O=c1ccn([C@@H]2O[C@@H](COP(=O)(O)OP(=O)(O)O)[C@H](O)[C@@H]2O)c(=O)[nH]1	-2.2%
CCN(CC)S(=O)(=O)c1cccc(C(=O)N2CCCCC2)c1	7.7%
Cc1nn(CC(=O)Nc2ccccn2)c(=O)c2ccccc12	8.1%
CC(CN1CCCC(C(N)=O)C1)c1ccccc1 (stereo not drawn)	-2.6%
COc1ccc(CN2CCN(C(=O)c3cccs3)CC2)cc1Br	66.4%
CSc1cccc(NC(=O)CN(C)S(=O)(=O)c2ccc(F)cc2)c1	-20.6%
c1ccc(/N=C2\N=C(Nc3ccccn3)c3ccccc32)nc1	18.1%
O=C(O)c1cccc(CSc2nnc(Cc3ccccc3)o2)c1	-3.1%
Cc1ccc(NS(=O)(=O)c2cc(C(=O)O)ccc2Cl)cc1	-24.4%
CC(=O)C1(O)C(C)CC2C3CCC4CC(O)CCC4(C)C3=CCC21C (stereo not drawn)	41.7%
O=C(Cn1cc2c(n1)CCCC2)NCCCN1CCCC1	35.0%
Cc1c(Br)c(C(F)(F)F)nn1CC(=O)N1CCCC1	3.5%
O=C(O)C1C2C=CC(C2)C1C(=O)NC1CCN(Cc2ccccc2)CC1 (stereo not drawn)	-9.7%
COC(=O)c1cc(-c2c(C)oc3cc(OC)ccc3c2=O)c(C)o1	31.4%
CCCc1cc(=O)[nH]c(SCC(=O)OCc2ccccc2)n1	-5.8%
N#Cc1ccc(CN2CCCC3(CCN(C(=O)c4cnccn4)CC3)C2)cc1	125.7%
Cc1cc(C)nc(SCc2nnc(SCC(=O)Nc3ccc(C)c(C)c3)o2)n1	66.9%
COc1ccc2[nH]cc(CCNc3ccnc(-c4cccc(C#N)c4)n3)c2c1	0.1%
COC(=O)c1sc2nc(CN3CCOCC3)nc(N3CCOCC3)c2c1C	41.7%
COc1ccccc1NC1SC(=O)N(c2ccccc2)C1=O (stereo not drawn)	-3.4%
CC(=O)N1CCN=C1SCc1ccc(F)cc1	2.0%
COc1ccc(N(CC(=O)NCc2cccs2)S(=O)(=O)c2c(C)n[nH]c2C)cc1	26.3%

Shown with each value named: part of the list above
CN1CCN(CCN2CCn3c2nc2ccccc23)CC1
- AmpC inh no det: -6.4%
COC(=O)c1ccc(C(/C=C/[C@@H](C)C(=O)NCc2ccccc2)NC(=O)OCc2ccccc2)cc1 (stereo partly drawn)
- AmpC inh no det: 6.3%

(next part)
molecule	AmpC inh no det
CC(C)C[C@@H](NC(=O)OCC1c2ccccc2-c2ccccc21)C(=O)O	23.1%
C[C@H](C(=O)O)c1cccc(Oc2ccccc2)c1	-10.2%[12.8 µM]
CCOC(=O)N1CCN(C(=O)COc2ccc(S(=O)(=O)NC3CCCCC3)cc2C)CC1	96.8%
COc1ccc(N2C(=O)CCC(C(=O)NCc3ccccn3)C2c2ccc(OC)c(OC)c2)cc1 (stereo not drawn)	15.9%
CC(C)(C)OC(=O)N[C@@H](Cc1ccccc1)c1nnc(S(=O)(=O)Cc2ccccc2)o1	3.16µM*
Cc1ccc(-c2noc(-c3ccccc3C(=O)NCC3CCCO3)n2)cc1 (stereo not drawn)	79.9%
Cn1c(=O)c2[nH]c(CCNC(=O)c3ccccc3)nc2n(C)c1=O	1.0%[5.75 µM]
C1CCN=C(Nc2nn[nH]n2)CC1	-9.3%
COc1ccc(NC(=O)CCCCC#Cc2ccccc2)cc1	-18.8%
COC(=O)[C@@]1(Cc2ccc(OC)cc2)[C@H]2c3cc(C(=O)N(C)C)n(C)c3C[C@H]2CN1C(=O)c1ccccc1	164.0%
COc1ccccc1NC(=O)CN1CCN(CC(=O)Nc2ccc(Cl)c(C(F)(F)F)c2)CC1	140.4%
O=C(Cn1cnc2ccccc2c1=O)Nc1ccc(-c2nnc3n2CCCCC3)cc1	46.2%
CCOc1ccc(S(=O)(=O)N(C)c2ccc(OCC(=O)Nc3ccc4[nH]c(=O)[nH]c4c3)cc2)cc1	39.1%
CCN(CCNC(=O)Nc1ccc(Cl)cc1)c1ccccc1	-24.8%
CCCCCP(=O)(O)c1ccccc1	-4.1%
O=C(O)CCCNC(=O)OCc1ccccc1	-6.6%

(next part)
structure,AmpC inh no det
Cc1nn2c(-c3ccncc3)nnc2c2ccccc12,2.0%
COc1ccc2c(c1)N1CCN=C1N2C,-2.4%
CCn1c(=O)cc(OCC(=O)NCc2ccc(C)o2)c2ccccc21,36.5%
CC1Cc2nc(SCC(=O)Nc3ccc4c(c3)OCO4)n(Cc3ccccc3)c(=O)c2S1 (stereo not drawn),-21.8%
COC(=O)c1cc(-c2ccc(OC)c(OC)c2)on1,10.2%
CCOC(=O)C1CCN(Cc2ccc(OC)c(C)c2OC)CC1,8.3%
CS(=O)(=O)N1CCC(C(=O)Nc2ccc(Oc3ccccc3)cc2)CC1,19.5%
O=C(CCCOc1ccc(Cl)cc1)Nc1nncs1,5.9%
CCOC(=O)C1=C(C)N=c2s/c(=C3\C(=O)Nc4ccccc43)c(=O)n2C1c1ccc2c(c1)OCO2 (stereo not drawn),60.5%
COc1cc2c(cc1OC)C1=C(C#N)CN(C3CCCCC3)CN1CC2,117.2%
CC1CCC(n2c(=S)[nH]c3ccccc3c2=O)CC1 (stereo not drawn),-5.6%
Cc1ccc(NC(=O)CS(=O)CC(=O)N(C2CCCC2)C(C)C(=O)NC2CCCCC2)cc1 (stereo not drawn),128.8%
CCC(=O)NC1(C(F)(F)F)C(=O)NC(C)=C1C#N (stereo not drawn),-14.1%
CSc1cc(C)nc(NC(C)=O)n1,-13.2%
c1cc(-c2nc3cc(Cc4ccc5oc(-c6ccncc6)nc5c4)ccc3o2)ccn1,26.4%
Cc1cc(C)cc(NC(=O)CSc2nnc(Cc3cccn3C)n2-c2ccc(F)cc2)c1,126.4%
O=C(CSc1nncc2ccccc12)N1CCOCC1,0.8%
COc1ccc(-c2[nH]nc3c2C(c2ccccc2OC(=O)N2CCOCC2)C(C#N)=C(N)O3)cc1 (stereo not drawn),78.5%
CCOc1ccc(N(CC(=O)Nc2ccc(C)cc2)S(=O)(=O)c2c(C)noc2C)cc1,3.0%
Cc1nc(N2CCN(C(=O)c3ccco3)CC2)c2oc3ccccc3c2n1,71.4%
COC(=O)c1ccc(C(=O)OC)c(NC(=O)Nc2ccc3c(c2)OCO3)c1,-9.5%
CN1CCN(C(=O)C2CC(c3c(F)cccc3Cl)=NO2)CC1 (stereo not drawn),-3.0%
O=C(c1csnn1)N1CCC[C@@]2(CCN(Cc3cc(C(F)(F)F)cc(C(F)(F)F)c3)C2)C1,120.8%
CS(=O)(=O)N1CCC[C@@]2(CCN(C(=O)Nc3ccccc3)C2)C1,-2.8%
COc1ccc(C)cc1S(=O)(=O)Nc1ccccc1C,-1.4%
COc1ccc(Cl)cc1C(=O)CSc1nc(N)cc(N)n1,16.7%
O=C(O)CSCC(=O)NCc1ccccc1,-0.4%
CCOc1ccc(-n2cnnn2)cc1S(=O)(=O)N1CCCCC1,8.9%
O=C1c2ccc(Oc3ccc4c(c3)C(=O)N(CCCCO)C4=O)cc2C(=O)N1CCCCO,104.2%
Cn1c(=O)c2c(-c3ccccc3)n(-c3ccccc3O)cc2n(C)c1=O,?
CCn1cnc2sc(C(=O)N(Cc3ccc(N(C)C)cc3)Cc3ccco3)c(C)c2c1=O,120.6%
Cc1cc(NCCN2CCCCC2)n2c(nc3ccccc32)c1C#N,0.8%
CC(=O)N1CCC2(CC1)CC(=O)c1cc(OCC(=O)NCc3ccc(C)cc3)ccc1O2,93.5%
O=C(c1ccco1)N1CCN(C(c2ccccc2Cl)c2nnnn2Cc2ccco2)CC1 (stereo not drawn),51.2%
N#Cc1cc(-c2ccccc2)oc1NC(=O)c1ccco1,0.2%
O=C(CCN1C(=O)C2C3C=CC(C3)C2C1=O)Nc1ccc2c(c1)OCO2 (stereo not drawn),-5.5%
Cc1ccc2c(c1)NC(=O)C(CC(=O)O)O2 (stereo not drawn),2.0%
Nc1nc(-c2ccc(Cl)cc2)nn1C(=O)c1cccnc1,-3.3%
O=C1C2C3CCCC3=C3CCCC3C2C(=O)N1c1ccccc1 (stereo not drawn),11.5%
COc1cccc(NC(=O)CN(c2cccc(C(F)(F)F)c2)S(C)(=O)=O)c1,12.0%
O=C(c1cc(-c2ccncc2)nc2ccccc12)N1CCN(c2ccc(N3CCOCC3)nn2)CC1,130.4%
CC1=C(C(=O)NC(C)c2ccc3c(c2)OCCO3)C2(CCC(C)CC2)OC1=O (stereo not drawn),45.5%
O=c1onc2n1-c1cc(Br)ccc1OC2,-15.3%
CCOC(=O)N1CCC(NC(=O)c2cc(C)c3c(C)nn(-c4ccccc4)c3n2)CC1,102.2%
